FGF22 binding = binders of recombinant human FGF22 by thermal shift; Q9HCT0; SYPRO orange fluorescence; percent of sucrose octasulfate shift, DMSO zero; calls only at 9.99 µM; 340,000 compounds, 1.5% hits; AID 651658;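 active = melting point raised past a set limit in the mean and every replicate; inconclusive = no clear call; three in four hits are not shown here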
Target sequence (Q9HCT0 whole entry, looked up): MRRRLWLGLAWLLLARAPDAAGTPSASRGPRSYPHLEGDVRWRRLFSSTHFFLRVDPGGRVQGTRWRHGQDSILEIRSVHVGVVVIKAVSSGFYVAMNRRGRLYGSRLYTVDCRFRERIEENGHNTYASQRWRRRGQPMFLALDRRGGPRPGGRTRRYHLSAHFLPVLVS
rRNA inh HTS = selective bacterial rRNA inhibition in E. coli | E. coli WT GFP vs humanized-ribosome RFP mutants, fluorescence, 24 h; hits give low values; DMSO median 0, no signal -100 | GFP signal change (wild-type ribosome), % (concentration not given with the values) | 350,000 compounds, 1.6% hits;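 active = significant combined selectivity score with lowered wild-type GFP, culture density cut under 30%, mutant RFP and density less affected; inactive = any of these conditions unmet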; also: one replicate is shown; some compounds called inactive have numbers as strong as hits
ALR H2O2 inh = inhibitors of human sulfhydryl oxidase ALR; inhibition, % (no concentration beside the values); AID 485317; 290,000 compounds, 3.8% hits; purified ALR, DTT oxidation, H2O2 HRP-luminol luminescence;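 active = mean and each replicate at 75% or more; inconclusive = only one of the two met; inactive = neither met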;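 also: stock transfer was 7.5 nL into about 7.5 µL; 0% = neutral wells and 100% = wells with inactivated enzyme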
Target sequence (P55789 whole entry, looked up): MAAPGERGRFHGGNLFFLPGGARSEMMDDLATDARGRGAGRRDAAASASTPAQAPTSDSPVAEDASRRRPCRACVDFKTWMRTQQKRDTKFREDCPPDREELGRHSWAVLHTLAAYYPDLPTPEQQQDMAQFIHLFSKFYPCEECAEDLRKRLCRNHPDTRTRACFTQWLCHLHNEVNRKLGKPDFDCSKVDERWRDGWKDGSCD
RanGTP-Impb inh = inhibitors of RanGTP-importin-beta interaction, primary screen, biochemical, FRET, CFP-Ran, YFP-importin-beta, homogeneous; cell-free CFP-Ran/YFP-importin-beta FRET ratio; inhibition, % (test concentration not listed); 300,000 compounds, 1.1% hits; AID 2216;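 active = most replicates above 15%; inconclusive = exactly half above 15%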;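 also: 0% = DMSO wells and 100% = Ran loaded with GDP instead of GTP; wells of about 40 µL received 100 nL stock; the first replicate is given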
AF4-AF9 inh = blocks AF4 peptide binding to human AF9. AlphaScreen, biotin-AF4 peptide binding to FLAG-AF9. inhibition, % at 10 µM. 350,000 compounds, 0.47% hits;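 active = every replicate reaching a set inhibition limit, whatever the replicate mean, cut at about 25% in these data; inconclusive = mean inhibition reaches that limit but some replicates miss it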;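 also: 0% = plate neutral control median and 100% = total signal loss; the record names both 10 and 1 µM as test concentration; the first replicate is given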
Target sequence (P42568 whole entry, looked up): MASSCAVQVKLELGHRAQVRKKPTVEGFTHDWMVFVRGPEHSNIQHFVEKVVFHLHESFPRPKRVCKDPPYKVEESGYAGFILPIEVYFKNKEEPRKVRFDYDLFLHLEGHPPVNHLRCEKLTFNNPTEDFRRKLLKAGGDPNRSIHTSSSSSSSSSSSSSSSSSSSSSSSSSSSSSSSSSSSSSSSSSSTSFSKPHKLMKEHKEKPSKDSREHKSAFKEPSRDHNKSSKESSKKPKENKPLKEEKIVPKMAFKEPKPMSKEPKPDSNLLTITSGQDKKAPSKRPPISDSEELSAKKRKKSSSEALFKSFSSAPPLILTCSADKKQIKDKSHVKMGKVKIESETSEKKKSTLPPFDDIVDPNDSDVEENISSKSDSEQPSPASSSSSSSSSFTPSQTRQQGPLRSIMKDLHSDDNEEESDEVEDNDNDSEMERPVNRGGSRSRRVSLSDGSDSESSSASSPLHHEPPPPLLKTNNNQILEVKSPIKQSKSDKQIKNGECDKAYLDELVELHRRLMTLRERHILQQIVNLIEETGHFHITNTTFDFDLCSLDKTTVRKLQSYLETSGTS
Calb FLC = affects C. albicans growth with fluconazole | 300,000 compounds, 0.57% hits | AID 1979 | C. albicans CaCi-2 (fluconazole-resistant clinical isolate) + fluconazole, Alamar Blue growth, 48 h | growth inhibition, % (concentration not given with the values);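 active = most replicates above 75%; inconclusive = exactly half above 75%; inactive = most below 75%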;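 also: all wells also contain fluconazole at 8 µg/ml as a sub-toxic cotreatment; 0% = median of DMSO wells and 100% = median of geldanamycin control wells; wells of about 8 µL received 7.5 nL stock; the first replicate is given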
Beta apoptosis = beta cell apoptosis inhibition; INS-1E cytokine-induced death, ATP luminescence, 48 h; percent of positive-control rescue, neutral wells zero; protection from apoptosis, % (test concentration not listed); 300,000 compounds, 0.8% hits; AID 435005;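 active = all replicates at 75% or more, or half of them and the mean; inconclusive = half reach 75% but not the mean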;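 also: 0% = cytokine-treated negative control wells and 100% = positive control rescue; higher means more ATP so stronger rescue from cytokine killing; wells of about 40 µL received 100 nL stock; the first replicate is given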
T cruzi inh = T. cruzi replication inhibition. T. cruzi beta-gal in NIH3T3, luminescence, 90 h. inhibition, % (no concentration beside the values). 300,000 compounds, 1.4% hits. AID 1885;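 active = mean inhibition across valid replicates above about 55%, limit read from the data; inconclusive = mean below that limit but half or more replicates reach it; inactive = mean below it, under half of replicates reach it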;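 also: signal also drops with host cell toxicity which is not excluded here; 0% = plate median of DMSO wells and 100% = zero luminescence signal; higher percent means less beta-gal luminescence so fewer parasites; stock transfer was 50 nL into about 50 µL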
rRNA inh HTS OD600 = further read-out of rRNA inh HTS, marked with its call; OD600 change, %; measured here: OD600 growth;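 optical density of the mix in the first replicate; 0 = DMSO median and -100 = no signal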
rRNA inh HTS RFP = second read-out of rRNA inh HTS, no call of its own (marks repeat the call); RFP signal change, %; measured here: RFP humanized mutant strains;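 first replicate; 0 = DMSO median and -100 = no signal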
The depositor's hits bear a star.

CN1C(=O)CC(C(=O)Nc2ccccc2F)SC1=Nc1ccc2c(c1)OCO2 (stereo not given) was read as FGF22 binding inactive, rRNA inh HTS -34, ALR H2O2 inh -10, RanGTP-Impb inh -3.9, AF4-AF9 inh -0.3, Calb FLC -9, Beta apoptosis 1, T cruzi inh 4, rRNA inh HTS OD600 -48 and rRNA inh HTS RFP -6.8.
`Nc1nccnc1C(=O)OCC(=O)N1CCN(S(=O)(=O)c2ccc(Cl)cc2)CC1` gave FGF22 binding inactive, rRNA inh HTS 1, RanGTP-Impb inh 2.9, AF4-AF9 inh 0.4, Calb FLC -2, Beta apoptosis -8, T cruzi inh 17, rRNA inh HTS OD600 2 and rRNA inh HTS RFP -0.7.
`CCN1C(=O)C(CC(=O)Nc2ccc(OC)cc2)N(Cc2cccs2)C1=S` (stereo not given) gave FGF22 binding inactive, rRNA inh HTS -31*, ALR H2O2 inh 10, RanGTP-Impb inh -3.0, AF4-AF9 inh -0.8, Calb FLC -6, Beta apoptosis -6, T cruzi inh 19, rRNA inh HTS OD600 -23* and rRNA inh HTS RFP -3.9*.
Screening CCOC(=O)C1C2C=CC3(CN(Cc4ccccc4)C(=O)C13)O2 (stereo not given) returned FGF22 binding inactive, rRNA inh HTS 6, ALR H2O2 inh -4, RanGTP-Impb inh inconclusive, AF4-AF9 inh -6.2, Calb FLC 2, Beta apoptosis -3, T cruzi inh -9, rRNA inh HTS OD600 10 and rRNA inh HTS RFP 1.9.
For Cc1cc(=O)oc2cc(OCc3cc4c(cc3Cl)OCO4)ccc12 the results were ALR H2O2 inh -3, RanGTP-Impb inh -3.2, Calb FLC 3, Beta apoptosis 8 and T cruzi inh 4.
`COc1cc(-c2nc(-c3ccncc3)no2)cc(OC)c1OC` gave ALR H2O2 inh 0, RanGTP-Impb inh 4.2, Calb FLC 13, Beta apoptosis 0 and T cruzi inh -13.
`Cc1cc(C)c(OCC(=O)OC(C)C(=O)NC2CC2)c(C)c1` (stereo not given) gave FGF22 binding inactive, rRNA inh HTS 8, ALR H2O2 inh 29, RanGTP-Impb inh -0.8, AF4-AF9 inh 0.6, Calb FLC inconclusive, Beta apoptosis 2, T cruzi inh -20, rRNA inh HTS OD600 21 and rRNA inh HTS RFP 1.2.
`CCc1nn(CC(=O)NCCCN2CCN(C)CC2)c(=O)c2cc3sc(C)cc3n12` gave FGF22 binding inactive, rRNA inh HTS 2, ALR H2O2 inh -6, RanGTP-Impb inh 0.3, AF4-AF9 inh 2.1, Calb FLC 1, Beta apoptosis -2, T cruzi inh -1, rRNA inh HTS OD600 -2 and rRNA inh HTS RFP -1.0.
Cc1ccc(-n2cc[nH]c2=S)cc1C was read as ALR H2O2 inh 17, RanGTP-Impb inh 1.4, Calb FLC -6, Beta apoptosis 0 and T cruzi inh -18.
N#Cc1cccc(NC(=O)COC(=O)c2ccccc2Sc2ccccc2C#N)c1 was read as FGF22 binding inactive, rRNA inh HTS 1, RanGTP-Impb inh 3.7, AF4-AF9 inh -7.7, Calb FLC 5, Beta apoptosis -6, T cruzi inh 1, rRNA inh HTS OD600 -3 and rRNA inh HTS RFP 0.4.
N#Cc1ccc(Cl)cc1NC(=O)COC(=O)c1ccc2c(c1)OCCO2 was read as rRNA inh HTS 6, ALR H2O2 inh -2, RanGTP-Impb inh 4.8, Calb FLC 2, Beta apoptosis -12, T cruzi inh -2, rRNA inh HTS OD600 6 and rRNA inh HTS RFP -5.1.
C/C=C\C=C\C(=O)Nc1cccc(C2=NOC3(C2)C[C@@H](C(N)=O)N(C(=O)C(c2ccccc2)c2ccccc2)C3)c1 (stereo not given in full) was read as FGF22 binding inactive, rRNA inh HTS 16, ALR H2O2 inh 0, RanGTP-Impb inh 0.2, Calb FLC 16, Beta apoptosis 0, T cruzi inh 7, rRNA inh HTS OD600 21 and rRNA inh HTS RFP 3.3.
`CC1(C)CC(=O)C(C(=S)Nc2ccc(F)cc2)=C(NCCN2CCOCC2)C1` gave ALR H2O2 inh 4, RanGTP-Impb inh 5.4, Calb FLC 0, Beta apoptosis -7 and T cruzi inh 1.
For COc1cccc(Cn2cc(C(=O)NCCN(C)C)nn2)c1 the results were FGF22 binding inactive, rRNA inh HTS 10, ALR H2O2 inh -10, RanGTP-Impb inh inconclusive, AF4-AF9 inh -2.7, Calb FLC -9, Beta apoptosis -5, T cruzi inh 1, rRNA inh HTS OD600 5 and rRNA inh HTS RFP -1.1.
`Cc1ccc(/C=C/C(=O)Nc2nnc(SCc3ccc(C#N)cc3)s2)o1` gave FGF22 binding inactive, rRNA inh HTS 25, ALR H2O2 inh 6, RanGTP-Impb inh -3.7, AF4-AF9 inh -2.6, Calb FLC inconclusive, Beta apoptosis -13, T cruzi inh 20, rRNA inh HTS OD600 0 and rRNA inh HTS RFP 27.
For Cc1ccc2c(CC(=O)N(C)c3c(N)n(Cc4ccccc4)c(=O)[nH]c3=O)coc2c1 the results were FGF22 binding inactive, rRNA inh HTS 2, ALR H2O2 inh -8, RanGTP-Impb inh 3.0, AF4-AF9 inh -0.7, Calb FLC 0, Beta apoptosis -3, T cruzi inh 2, rRNA inh HTS OD600 8 and rRNA inh HTS RFP -4.6.
COCCOc1cc(N(CC(=O)N(C)C)S(=O)(=O)c2ccccc2)c(Cl)cc1Cl was read as FGF22 binding inactive, rRNA inh HTS -10, ALR H2O2 inh -6, RanGTP-Impb inh -2.5, AF4-AF9 inh 0.1, Calb FLC 7, T cruzi inh 4, rRNA inh HTS OD600 -21 and rRNA inh HTS RFP -3.1.
For Cc1nc2ccc(NC(=S)N3CCCC3)cc2nc1C the results were FGF22 binding inactive, rRNA inh HTS 1, ALR H2O2 inh -39, RanGTP-Impb inh 1.7, AF4-AF9 inh 0.4, Calb FLC 40, Beta apoptosis 0, T cruzi inh -5, rRNA inh HTS OD600 -6 and rRNA inh HTS RFP 4.6.
O=C(COC(=O)c1cc(S(=O)(=O)N2CCOCC2)ccc1F)NCc1ccco1 was read as FGF22 binding inactive, rRNA inh HTS 18, ALR H2O2 inh 0, RanGTP-Impb inh -1.6, AF4-AF9 inh 1.6, Calb FLC 4, Beta apoptosis 0, T cruzi inh -13, rRNA inh HTS OD600 14 and rRNA inh HTS RFP 1.5.
`CN(C)C(=O)COc1ncnc2sc(-c3ccccc3)cc12` gave FGF22 binding inactive, rRNA inh HTS -2, ALR H2O2 inh 13, RanGTP-Impb inh 6.5, AF4-AF9 inh -0.7, Calb FLC -4, Beta apoptosis -1, T cruzi inh -6, rRNA inh HTS OD600 3 and rRNA inh HTS RFP 2.0.
Screening O=Cc1cccn1-c1ccccc1 returned FGF22 binding inactive, rRNA inh HTS 13, RanGTP-Impb inh 2.9, AF4-AF9 inh -1.6, Calb FLC -4, Beta apoptosis -1, T cruzi inh -12, rRNA inh HTS OD600 3 and rRNA inh HTS RFP 11.
CCn1cc(CN2CCC(Oc3ccc(C(=O)N4CCCCC4)cc3)CC2)cn1 was read as FGF22 binding inactive, rRNA inh HTS 6, ALR H2O2 inh 0, RanGTP-Impb inh -1.3, AF4-AF9 inh -1.5, Calb FLC -2, Beta apoptosis -5, T cruzi inh 16, rRNA inh HTS OD600 15 and rRNA inh HTS RFP 4.7.
O=C(COC(=O)c1cccc(S(=O)(=O)N2CCOCC2)c1)NCCc1ccccc1 was read as FGF22 binding inactive, rRNA inh HTS 6, ALR H2O2 inh -4, RanGTP-Impb inh -1.6, AF4-AF9 inh 1.0, Calb FLC -4, Beta apoptosis 0, T cruzi inh -9, rRNA inh HTS OD600 -2 and rRNA inh HTS RFP 1.1.
O=C(CSc1nnnn1-c1cccc2c1CCCC2)N1CCOCC1 was read as FGF22 binding inactive, rRNA inh HTS -8, ALR H2O2 inh -4, RanGTP-Impb inh -5.0, AF4-AF9 inh 9.4, Calb FLC -12, Beta apoptosis -4, T cruzi inh 12, rRNA inh HTS OD600 -15 and rRNA inh HTS RFP -3.4.
For CCOC(=O)CCCCC(=O)NC(CO)C(=O)NC (stereo not given) the results were ALR H2O2 inh -3, RanGTP-Impb inh -1.2, Calb FLC -2, Beta apoptosis 2 and T cruzi inh -2.
Screening NNC(=O)c1cccc(O)c1 returned ALR H2O2 inh 52, RanGTP-Impb inh -2.6, Calb FLC -3, Beta apoptosis 2 and T cruzi inh 3.
COc1ccc(CCNC(=O)c2ccc(Cl)c(S(=O)(=O)N3CCCCCC3)c2)cc1 was read as FGF22 binding inactive, rRNA inh HTS -12, ALR H2O2 inh -5, AF4-AF9 inh -2.3, Beta apoptosis 2, rRNA inh HTS OD600 -35 and rRNA inh HTS RFP -1.9.
For CCCSc1nc2c3c(sc2c(=O)[nH]1)CC(C)(CC)OC3 (stereo not given) the results were FGF22 binding inactive, rRNA inh HTS 6, ALR H2O2 inh -9, RanGTP-Impb inh -5.2, AF4-AF9 inh -6.9, Calb FLC -2, T cruzi inh 8, rRNA inh HTS OD600 12 and rRNA inh HTS RFP 0.1.
CCN(CC)CCOCCOC(=O)C(CC)(CC)c1ccccc1 was read as FGF22 binding inactive, rRNA inh HTS 0, ALR H2O2 inh -1, RanGTP-Impb inh 1.0, AF4-AF9 inh -2.5, Calb FLC -3, Beta apoptosis -3, T cruzi inh 21, rRNA inh HTS OD600 -11 and rRNA inh HTS RFP -0.6.
C=CCN1C(=Nc2ccccc2)SC/C1=C\C(=O)OC was read as ALR H2O2 inh inconclusive, RanGTP-Impb inh -0.3, Calb FLC -14, Beta apoptosis 2 and T cruzi inh 4.
For O=C(CS(=O)(=O)Cc1ccccc1)NCc1ccco1 the results were FGF22 binding inactive, rRNA inh HTS 0, ALR H2O2 inh -5, RanGTP-Impb inh -1.1, AF4-AF9 inh -0.7, Calb FLC -13, Beta apoptosis -8, T cruzi inh -9, rRNA inh HTS OD600 3 and rRNA inh HTS RFP -2.9.
Screening Cc1cc(C)cc(NC(=O)N(CCC#N)Cc2cccs2)c1 returned FGF22 binding inactive, rRNA inh HTS 12, ALR H2O2 inh -2, RanGTP-Impb inh 0.9, AF4-AF9 inh 0.6, Calb FLC -1, T cruzi inh -1, rRNA inh HTS OD600 0 and rRNA inh HTS RFP 0.5.
COc1ccc(-n2c(C)cc(-c3csc(NC(=O)c4ccc(S(=O)(=O)N(C)C)cc4)n3)c2C)cc1 was read as ALR H2O2 inh 3, RanGTP-Impb inh -2.0, Calb FLC -16, Beta apoptosis 0 and T cruzi inh -7.
For O=C(COC(=O)CCSc1ccccc1)NCc1ccc(F)cc1 the results were FGF22 binding inactive, rRNA inh HTS -3, ALR H2O2 inh 44, RanGTP-Impb inh 2.5, AF4-AF9 inh -1.7, Calb FLC 3, Beta apoptosis 0, T cruzi inh -10, rRNA inh HTS OD600 -6 and rRNA inh HTS RFP 2.6.
For O=S(=O)(c1ccccc1)c1nc(-c2ccco2)oc1Nc1ccccc1 the results were FGF22 binding inactive, RanGTP-Impb inh -1.4, AF4-AF9 inh -2.5, Calb FLC -2, Beta apoptosis 4 and T cruzi inh 23.
`Nc1c(N=O)c(=O)[nH]c(=O)n1-c1ccccc1` gave FGF22 binding inactive, rRNA inh HTS 8, ALR H2O2 inh -5, RanGTP-Impb inh -3.6, AF4-AF9 inh 3.8, Calb FLC 2, Beta apoptosis 1, rRNA inh HTS OD600 6 and rRNA inh HTS RFP 2.9.

This is a subset; count on the stated rates, not on these rows.
